High-throughput results deposited in PubChem by National Center for Advancing Translational Sciences (NCATS).
PINK1 expr mod = modulators of PINK1 expression. hit rate 0.2% among 410,000. PINK1 immunofluorescence, high-content cytometry, 24 h. AID 624263. Potency, µM (titrated, usually from 76.6 µM), for inactives: at the top dose activation (PINK1 increase), actives largely listed as activators; active = well fitted activation curve with a large enough effect; inconclusive = small, poorly fitted or top-dose-only effect; inactive = flat fitted curve, though single readings scatter; cell line not stated here;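 note: potency is the fitted concentration of half-maximal effect; % of control where 0% means no effect; nearly all actives have a fitted effect of over 65% in size; a mitochondrial uncoupler was the plate control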
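PINK1 protein, normally rapidly degraded, was detected by immunofluorescence after 24 hour compound treatment of a stable cell line. Titration data (5 concentrations) came from laser-scanning cytometry, with CCCP-treated wells as controls.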
Six1-Eya2 blk = blocks human Six1 binding to Eya2; AlphaScreen GST-Six1/His-Eya2 binding, biochemical; hits give low values; control for the full effect not named in the record; activity change, % (concentration not given with the values); hit rate 0.56% among 360,000; in the data active = activity change below about -65%; inconclusive = about -30% to -65%; inactive = above about -30%; note: % is set by controls: 0 for no effect and ±100 for the full control effect
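Six1/Eya2 binding was read as AlphaScreen signal after compounds were pinned into GST-Six1 plus His-tagged Eya2 (5X stock 250/500 nM) in pH 8.0 Tris/NaCl/TCEP buffer, beads added, then incubated 1 h, 37 C, dark.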
TRPML1 inh = human mucolipin-1 channel inhibition; TRPML1-inducible cells, Ca2+ dye fluorescence, FDSS; hits give low values; inhibition of EC80 agonist-evoked calcium signal; activity change, negative = inhibition, % (no concentration beside the values); hit rate 0.02% among 390,000; in the data active means activity change below about -50%; inconclusive means about -30% to -50%; inactive means above about -30%;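 note: stimulus is agonist 54-4 at its EC80 concentration; % is set by controls: 0 for no effect and ±100 for the full control effect; compound concentration not given in the record; the text of the record puts the active cut at -80%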
Target sequence (Q9GZU1 whole entry, looked up): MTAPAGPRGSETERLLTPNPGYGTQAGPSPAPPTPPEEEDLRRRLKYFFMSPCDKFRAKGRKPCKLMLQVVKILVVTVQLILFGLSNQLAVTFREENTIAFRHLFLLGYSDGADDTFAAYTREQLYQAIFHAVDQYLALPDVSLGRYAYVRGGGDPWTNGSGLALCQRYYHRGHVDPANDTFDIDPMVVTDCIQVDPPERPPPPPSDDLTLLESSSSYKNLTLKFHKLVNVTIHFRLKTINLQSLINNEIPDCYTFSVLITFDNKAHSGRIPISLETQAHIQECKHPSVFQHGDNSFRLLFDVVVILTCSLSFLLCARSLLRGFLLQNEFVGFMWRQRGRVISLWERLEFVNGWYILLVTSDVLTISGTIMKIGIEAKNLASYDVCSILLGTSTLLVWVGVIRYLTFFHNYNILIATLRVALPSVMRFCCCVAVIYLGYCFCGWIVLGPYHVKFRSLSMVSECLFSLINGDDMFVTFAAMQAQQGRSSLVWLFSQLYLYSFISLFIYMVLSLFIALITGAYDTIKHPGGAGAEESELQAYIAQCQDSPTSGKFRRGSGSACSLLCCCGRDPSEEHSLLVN
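TRPML1-DL cells, Tet-induced overnight (~16 h, 37 °C) at 1,500 cells/well, were loaded with Ca8 no-wash dye plus quencher for 45-90 min at room temperature. Compounds were pinned during FDSS kinetic reading; agonist 54-4 at EC80 (4 uM final) then added.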
D2 ag = agonists of human D2 dopamine receptor (beta-arrestin); P14416; DiscoveRx PathHunter D2 beta-arrestin, luminescence, 90 min; 100% = 57 uM dopamine signal; activation, % (test concentration not listed); hit rate 0.084% among 360,000; in the data active = activation above about 40%; inconclusive = about 15% to 40%; inactive = below about 15%; note: compound concentration not given in the record; the text of the record calls up to 30% inactive
Target sequence (P14416 whole entry, looked up): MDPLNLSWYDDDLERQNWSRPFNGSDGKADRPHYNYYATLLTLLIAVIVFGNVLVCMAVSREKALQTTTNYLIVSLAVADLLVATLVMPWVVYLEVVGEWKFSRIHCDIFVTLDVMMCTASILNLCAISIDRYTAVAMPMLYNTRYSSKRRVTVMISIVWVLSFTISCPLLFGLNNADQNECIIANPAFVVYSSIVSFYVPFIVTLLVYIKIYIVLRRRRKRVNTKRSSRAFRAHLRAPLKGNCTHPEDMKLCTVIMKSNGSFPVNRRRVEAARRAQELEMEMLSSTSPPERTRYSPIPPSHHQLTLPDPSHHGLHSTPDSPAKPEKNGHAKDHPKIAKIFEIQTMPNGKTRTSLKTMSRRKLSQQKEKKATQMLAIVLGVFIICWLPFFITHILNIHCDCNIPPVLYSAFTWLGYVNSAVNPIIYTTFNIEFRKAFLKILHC
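Agonist mode: compounds alone added to overnight-plated D2 PathHunter cells for 90 min at 37 C, with 57 uM final dopamine (EC100) defining full response. Beta-arrestin recruitment detected by chemiluminescent reagent, read after 1 h at ambient temperature.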
D2 PAM = human D2 receptor positive allosteric modulation | DiscoveRx D2 beta-arrestin cells, luminescence, 90 min; 100% = 57 uM dopamine signal | P14416 | hit rate 0.23% among 360,000 | potentiation, % (concentration not given with the values); active = potentiation of 50% or more; inconclusive = 30% to 50%; inactive = 30% or less;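 note: compound concentration not given in the record; tested on top of an EC20 dose of dopamine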
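PathHunter D2 cells, attached overnight at 37 deg C, received compound in DMSO plus dopamine at EC20 (50 nM final) for 90 min at 37 deg C. Beta-arrestin recruitment was read as luminescence after 1 h with detection reagent at ambient temperature.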
TRPML1 ag = human mucolipin-1 channel agonism; Q9GZU1; TRPML1-expressing cells, Ca2+ dye fluorescence, FDSS; host cell line not named in the record; reference of the full effect not given here; hit rate 0.12% among 410,000; activation, % (no concentration beside the values); in the data active = activation above about 50%; inconclusive = about 30% to 50%; inactive = below about 30%; note: 0% is about no effect; the text of the record puts the active cut at 80%
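Tet-induced TRPML1-DL cells, 1,500 per well, cultured overnight, were loaded with a no-wash Ca2+ dye for 45–90 min. Calcium fluorescence was recorded on the FDSS for 110 s after compound addition, before the EC80 agonist (4 uM 54-4) was added.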
An asterisk follows results filed as active; ? = inconclusive; nt = not tested or not shown; & = joins results of further samples; [ ] = dose if it differs, or a comment.

SMILES | PINK1 expr mod | Six1-Eya2 blk | TRPML1 inh | D2 ag | D2 PAM | TRPML1 ag
CCn1c(N2CCN(S(=O)(=O)c3ccc(OC)cc3)CC2)nc2ccccc21 | -0.6% | 4 | 7 | ? | 1 | 1.3
COc1ccc(OC)c(C(=O)N(C)C2CCCN(Cc3ccccc3F)C2)c1 (stereo unspecified) | 0.1% | -3 | 7 | -5.0 | -50 | 0.0
Cc1cccc(Cn2nc(C)cc2NC(=O)Cn2cc([N+](=O)[O-])cn2)c1 | 3.7% | 2 | -7 | 2.0 | 1 | -0.3
Cc1ccccc1NC(=S)NC1CC2CCC(C1)N2Cc1ccco1 (stereo unspecified) | -3.3%[38.3 µM] | 0 | 11 | -2.2 | -21 | 1.0
COc1ccc(-c2noc(-c3ccccc3C(=O)Nc3cccnc3)n2)cc1OC | -3.7%[38.3 µM] | -5 | -6 | 2.2 | -1 | 1.1
CCOc1ccc(NC(=O)CSc2n[nH]c(=O)n2-c2ccccc2)cc1 | -4.2%[38.3 µM] | 3 | -5 | -1.7 | 0 | 1.0
Cn1cc(S(=O)(=O)N2CCc3ccccc32)cc1C(=O)NC1CCCCC1 | 5.5% | 1 | -18 | 4.9 | -1 | 1.2
O=S(=O)(NCCc1ccccc1)c1cccs1 | -1.3% | 51 | 14 | -4.8 | -4 | -0.4
O=C(CCc1nnc(CCC2CCCCC2)o1)NCCn1cccn1 | 1.1% | 1 | -1 | -4.3 | -2 | -0.9
CN1CC(=O)N(CC(=O)N2CCC(Cc3ccccc3)CC2)C1=O | 1.1% | 1 | -1 | -4.4 | -10 | -0.4
O=c1ccc(-c2ccc(S(=O)(=O)Nc3ccccc3)o2)n[nH]1 | 1.1% | -6 | -20 | -1.6 | -3 | -0.4
CC(C)OCCCn1c(=O)c2ccccc2n2c(-c3ccc(F)c(F)c3)nnc12 | -0.9% | nt | -5 | nt | nt | -1.2
COc1ccc(CCN(CC(=O)NC2CCCC2)C(=O)CCC(=O)Nc2cc(C)on2)cc1OC | 0.4% | -3 | 4 | -0.2 | -5 | 0.2
COc1ccc(/C=C/C(=O)Nc2cccnc2Cl)cc1 | 0.6% | 0 | nt | 4.6 | -6 | nt
O=c1[nH]c2ccccc2n1CCCOc1ccccc1 | -1.2% | 17 | -6 | -4.6 | -16 | 3.4
CCCCCn1c(C(C)NC(=O)c2ccccc2)nc2ccccc21 (stereo unspecified) | 3.0% | nt | -4 | nt | nt | -0.4
CCOc1ccc(-n2c(SC)nc3c(c2=O)SCC3)cc1 | -3.9% | 4 | -9 | -3.4 | -7 | 0.5
C[C@H](CO)N1C[C@H](C)[C@@H](CN(C)Cc2ccccc2)Oc2c(NS(=O)(=O)c3ccc(F)cc3)cccc2C1=O | 0.8% | 3 | 18 | -2.7 | -13 | -0.5
CC(CNC(=O)c1ccc(C(C)(C)C)cc1)CN(C)C (stereo unspecified) | -1.3% | 7 | -6 | 0.9 | -8 | 0.5
FC(F)(F)c1ccc(C2[C@H]3CN(Cc4ccc(-c5ccccc5)cc4)[C@H](c4ccccc4)C34CC2(c2cccnc2)C4)cc1 (stereo partly specified) | 1.4% | -1 | -13 | 1.0 | -9 | 0.2

Profiles, looked up by structure.
`Cc1ccccc1NC(=S)NC1CC2CCC(C1)N2Cc1ccco1` (stereo unspecified) is listed as PINK1 expr mod = -3.3%[38.3 µM]; Six1-Eya2 blk = 0; TRPML1 inh = 11; D2 ag = -2.2; D2 PAM = -21; TRPML1 ag = 1.0
`CC(CNC(=O)c1ccc(C(C)(C)C)cc1)CN(C)C` (stereo unspecified) is listed as PINK1 expr mod = -1.3%; Six1-Eya2 blk = 7; TRPML1 inh = -6; D2 ag = 0.9; D2 PAM = -8; TRPML1 ag = 0.5
`Cc1cccc(Cn2nc(C)cc2NC(=O)Cn2cc([N+](=O)[O-])cn2)c1` is listed as PINK1 expr mod = 3.7%; Six1-Eya2 blk = 2; TRPML1 inh = -7; D2 ag = 2.0; D2 PAM = 1; TRPML1 ag = -0.3

Additional structures follow:
SMILES | PINK1 expr mod | Six1-Eya2 blk | TRPML1 inh | D2 ag | D2 PAM | TRPML1 ag
Cc1[nH]c2ccccc2c(=O)c1CNCc1ccccc1 | 1.0% | 1 | -2 | -2.8 | -24 | -0.3
CC1CCCC(N2CCN(C(=O)c3cccc(F)c3)CC2)C1 (stereo unspecified) | -3.4%[38.3 µM] | 3 | 4 | -3.1 | -15 | -0.1
O=[N+]([O-])c1ccc(Nc2ccccc2F)nc1 | 1.1% | -2 | 16 | -2.7 | -1 | 0.6
Cc1cc(C)c(NC(=O)CN)c(C)c1 | 0.1% | 19 | 22 | -2.9 | -12 | 1.5
CCOC(=O)NC(c1cccc(Cl)c1)C1CCCCCC1=O (stereo unspecified) | 0.4% | 2 | -6 | -3.0 | 9 | -0.5
O=c1c2nncn2ccn1-c1ccc(F)c(F)c1 | 3.1% | nt | -7 | nt | nt | -0.1
COc1ccc(NC(=O)c2cc3n(n2)C(C(F)(F)F)CC(c2ccco2)N3)cc1 (stereo unspecified) | 6.1% | -8 | -5 | 2.5 | 10 | -0.1
Cc1cccc(NC(=O)CSc2nnc(-c3ccco3)o2)c1C | 1.5% | 24 | -4 | -3.8 | -5 | -1.5
OCCc1ccccc1 | -0.3% | -2 | -17 | -6.4 | -6 | 0.3
Cc1sc2nc(CN(Cc3cccs3)C(=O)NC3CCCCC3)[nH]c(=O)c2c1C | -1.2% | -10 | 0 | 2.8 | -9 | 0.1
COc1ccccc1NC(=O)NNC(=O)c1ccc2c(c1)NC(=O)C(C)(C)O2 | 0.8% | 1 | 2 | -1.2 | 1 | 0.9
C=C(C)CSc1nc(N)cc(=O)[nH]1 | -0.9% | 1 | -13 | -2.8 | -11 | 0.5
Cc1cc(C(=O)COc2ccccc2Cl)c(C)n1-c1ccc2c(c1)OCO2 | 3.0% | -14 | 3 | -5.2 | 20 | 0.5
CCOC(=O)c1cc2c(=O)n3ccccc3nc2n(Cc2ccco2)c1=NC(=O)c1c(F)cccc1Cl | 0.7% | nt | -1 | nt | nt | 2.3
Cc1cc(NC(=O)CN2C(=O)[C@@H]3[C@H](C2=O)[C@@H]2C[C@H]3C(Br)C2Br)no1 (stereo partly specified) | -0.6% | -4 | -26 | -6.6 | -12 | -0.4
COc1ccc(-c2c(C)nn(-c3ccccc3)c2NC(C)=O)cc1OC | 1.9% | -1 | -13 | -3.8 | -1 | 0.6
O=c1cnc2ccccc2n1Cc1ccccc1 | 0.2% | 2 | -1 | -3.8 | -13 | -0.7
O=[N+]([O-])c1cccnc1Oc1ccccc1F | 0.0% | -3 | 18 | 2.1 | -6 | -0.3
Cc1ccc(CN2CC(C(=O)N(CC(C)C)c3c(N)n(Cc4ccccc4)c(=O)[nH]c3=O)CC2=O)cc1 (stereo unspecified) | 4.0% | 3 | 10 | -2.7 | -6 | 4.4
CC1NC(=O)c2cc3ccccc3cc2-n2c1nc1cc(Cl)ccc1c2=O (stereo unspecified) | 2.7% | -3 | -16 | -2.1 | 7 | -0.4
COC(=O)N1[C@H](C)C=C[C@]1(Cc1ccccc1)C(=O)NCCCNc1ncc(C(F)(F)F)cc1Cl | 20% | -1 | 75 | 3.0 | -35 | -0.1
CN(Cc1nc(-c2cnccn2)no1)CC1CCN(Cc2ccccc2)CC1 | -1.2% | 4 | 39 | -0.3 | -8 | -0.6
Cn1cccc1Cc1nnc(SCC(=O)N2CCOCC2)n1-c1ccc(F)cc1 | 2.3% | -3 | 8 | 1.0 | -3 | 0.4
CCOc1ccc2nc(NC(=O)CSc3ccccc3)sc2c1 | 7.1% | -2 | -2 | -5.6 | -12 | 1.3
Cc1ccc(C)c(NC(=O)C2CC3CCC2C3)c1 (stereo unspecified) | -4.0% | 13 | 31 | 1.2 | -1 | 2.1
Cc1cc(C)cc(Nc2cc(C(=O)NCc3ccccc3)c3ccccc3n2)c1 | 0.3% | nt | 5 | nt | nt | 2.9
CCN(CC)CCOCCOc1ccc(Cl)c2ccccc12 | 0.0% | -5 | 22 | -3.0 | -22 | 0.4
Cc1cccc(NC(=O)c2ccccc2O)c1C | nt | 2 | -4 | -1.0 | -10 | -0.3
COc1cc(C(=O)Nc2scc(-c3ccc(C)cc3)c2C(=O)O)cc(OC)c1OC | -0.3% | -9 | 7 | 2.8 | 4 | 1.3
CSCCC(NS(=O)(=O)c1ccc(Cl)cc1)C(=O)OCC(=O)NC1CCCCC1 (stereo unspecified) | -1.5% | -3 | 41 | -4.4 | -1 | 0.0
C=CCn1c(Oc2ccc(C=O)cc2OCC)nc2c1c(=O)n(C)c(=O)n2C | 2.3% | -11 | -17 | -6.3 | 0 | -0.5
CCOC(=O)c1ccccc1NC(=O)c1cc2c(s1)-c1c(C)cccc1OC2 | -1.9% | nt | -2 | nt | nt | -0.5
Cn1c(NC(=O)C[n+]2cc(-c3ccc(F)cc3)n3c2CCC3)cc(=O)n(C)c1=O | -1.8% | 6 | -9 | -1.8 | -17 | 1.3
CC(C)Cc1nc2sc3c(c2c(=O)n1N)CC(C(C)C)OC3 (stereo unspecified) | 6.9% | 7 | nt | 2.2 | -5 | nt
Cc1cc2nc3n(c2cc1C)CCCN3 | -1.3% | 1 | 8 | -2.3 | -34 | -0.5
O=C(N/C(=C/c1ccc(Cl)cc1)C(=O)N1CCOCC1)c1ccccc1 | 0.1% | 14 | 12 | 1.5 | 11 | 0.8
COc1cc(C(=O)N/N=C/c2ccsc2C)cc(OC)c1OC | 4.8% | -6 | -7 | -2.5 | -35 | -0.9
CC(NC(=O)c1ccccc1)c1nnc(SCC(=O)Nc2nnc(C3CC3)s2)n1C (stereo unspecified) | 2.3% | 2 | -15 | -0.5 | -4 | -0.2
COc1ccc(CNC(=O)C(=O)NC2CC(C)(C)NC(C)(C)C2)cc1 | 0.6% | -3 | -1 | 2.4 | -4 | 0.3
COc1cccc(OC)c1-c1nn2c(-c3cc(-c4ccccc4)n[nH]3)nnc2s1 | 17% | -6 | -10 | 3.4 | -8 | -0.6
COc1ccc(-c2cn(-c3ccc(C)c(C)c3)c(=S)[nH]2)cc1OC | -0.9% | ? | 2 | -5.3 | -3 | -1.1
O=S(=O)(NCCS(=O)(=O)N1CCN(c2ccccc2)CC1)c1ccccc1 | 0.7%&0.1% | -2 | -10&22 | 4.2 | -12 | -0.9&0.6
Cc1cc(-c2nn(-c3ccccc3F)cc2CNCCc2cnccn2)c(C)s1 | 2.4% | -5 | 38 | -8.6 | -28 | 0.8
Cc1ccccc1CNC(=O)c1cc2cccc3c2n1CC(C)S3 (stereo unspecified) | 0.6% | nt | 59 | nt | nt | 1.5
COc1ccc(CN2C(=O)COc3ccccc32)cc1 | 0.0% | 12 | 21 | -0.1 | 0 | 1.7
COc1ccc(NC(=O)C2CCN(S(=O)(=O)c3c(C)noc3/C=C/c3ccco3)CC2)cc1 | 5.8% | nt | -10 | nt | nt | 1.3
Cc1cc(C)cc(NC(=O)C(=O)NCC(c2ccc3c(c2)OCO3)N2CCOCC2)c1 (stereo unspecified) | 2.2% | nt | 38 | nt | nt | 1.8
